SmPrx2 inh = blocks S. mansoni peroxiredoxin 2 enzymatic activity | S. mansoni Prx2 activity coupled to TGR/GSH (TGR is thioredoxin glutathione reductase), NADPH fluorescence loss, qHTS; some inactives read as strong as hits | Potency, µM | 65,000 compounds, 0.07% hits | AID 448; active means full or partial inhibition curve with a strong effect at the top dose; inconclusive means weaker partial or single-point curve; inactive means no accepted curve; note: series up to 57 µM; many of its hits are not listed in these tables
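Purified S. mansoni TGR and Prx2 in pH 7.4 phosphate buffer with EDTA and Tween-20 were preincubated with compounds for 15 min. Further NADPH/GSH was added, then a 2.5 mM H2O2 aliquot initiated turnover, followed kinetically by NADPH fluorescence.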
LT uptake inh = blocks cellular internalization of anthrax lethal toxin. Cells, anthrax lethal toxin internalization, FRET ratio (460/530). 70,000 compounds, 0.67% hits. Potency, µM (top dose mostly 40 µM), without a hit: top-dose activity change, negative = inhibition, usual class: inhibitors; active = well fitted falling ratio curve with the 530 nm signal flat; inconclusive = other ratio curves, or a change in one channel alone; inactive = flat curves in the ratio and both channels; the % refers to the ratio; note: % is set by controls: 0 for no effect and ±100 for the full control effect; nearly all actives have a fitted effect of over 50% in size; tested in ME-180 cells; beta-lactamase reporter
An asterisk follows results filed as active; ? = inconclusive; . = not tested or not shown; & = joins results of further samples; [ ] = another dose, or the depositor's remark. Potency is the fitted concentration of half-maximal effect.

Below each compound – SmPrx2 inh, LT uptake inh
> O=c1sc(Nc2ccccc2)nc2ccsc12
  >57, ?
> O=C(NCc1ccncc1)Nc1ccccc1Cl
  >57, 4.8%
> O=C(Nc1ccccc1)N(Cc1cccs1)C1CCCC1
  >57, 1.0%
> Cc1noc(C)c1-c1ccc2ncnc(N3CCN(C)CC3)c2c1
  >57, 12.5%
> CCOc1cc(S(=O)(=O)N2CC=C(c3ccc(F)cc3)CC2)c(OCC)cc1-n1cnnn1
  >57, ?
> COC(=O)c1ccc(C(NC(=O)OCc2ccccc2)/C(C)=C/[C@@H](C)C(=O)NCc2cccnc2)cc1 (some centres not stated)
  ., 20.6%
> CC1=C(C(=O)N2CCOCC2)C(c2ccccc2F)C2=C(CCCC2=O)N1 (configuration not stated)
  >57, ?
> COCCN(Cc1cc2cc3c(cc2n2nnnc12)OCO3)C(=O)c1ccccc1F
  >57, -3.9%
> O=C(NC1=NCCS1)c1ccncc1
  >57, 4.5%
> FC(F)(F)c1ccc2c(c1)ncn2C1CCN(Cc2nnnn2C2CCCCC2)CC1
  >57, -3.0%
> O=C1NCCCC1C(=O)NCCNC(=O)C(F)(F)F (configuration not stated)
  ., 0.7%
> Cn1c(=O)c2c(nc(N3CCCCCC3)n2CC(=O)c2ccc(Br)cc2)n(C)c1=O
  >57, -15.8%
> O=C(O)c1ccc(CS(=O)c2cccc(C(F)(F)F)c2)o1 (configuration not stated)
  >57, -9.3%
> COc1ccc(NC(=O)C2CCCN(S(=O)(=O)c3ccc(C)cc3)C2)cc1OC (configuration not stated)
  >57, -8.4%
> Cc1ccc(N(C)C(=O)N2CCN(c3ccccn3)CC2)cc1
  >57, -6.4%

Reprinted from the part before: 6 entries, followed by the next part.
Below each compound – SmPrx2 inh, LT uptake inh
> FC(F)(F)c1ccc2c(c1)ncn2C1CCN(Cc2nnnn2C2CCCCC2)CC1
  >57, -3.0%
> O=C1NCCCC1C(=O)NCCNC(=O)C(F)(F)F (configuration not stated)
  ., 0.7%
> Cn1c(=O)c2c(nc(N3CCCCCC3)n2CC(=O)c2ccc(Br)cc2)n(C)c1=O
  >57, -15.8%
> O=C(O)c1ccc(CS(=O)c2cccc(C(F)(F)F)c2)o1 (configuration not stated)
  >57, -9.3%
> COc1ccc(NC(=O)C2CCCN(S(=O)(=O)c3ccc(C)cc3)C2)cc1OC (configuration not stated)
  >57, -8.4%
> Cc1ccc(N(C)C(=O)N2CCN(c3ccccn3)CC2)cc1
  >57, -6.4%
> c1ccc(N=P(c2nc3ccccc3o2)(N2CCOCC2)N2CCOCC2)cc1
  >57, 4.9%
> COc1cc(NC(=O)CN2C(=O)c3ccccc3C2=O)c(C(=O)O)cc1OC
  >57, -7.2%
> COc1ccc(C2CC(c3ccc(C)cc3)Nc3ncnn32)cc1 (configuration not stated)
  >57, -12.6%
> CCCCOCC(O)Cn1c(C)nc2ccccc21 (configuration not stated)
  >57, -12.9%
> CCOc1ccc(-n2c(C)nc3cc(C(=O)NCc4ccco4)ccc32)cc1
  >57, -12.1%
> Cc1cc(C)c(C2=NOC(O)(C(F)(F)F)C2)c(=O)[nH]1 (configuration not stated)
  >57, 0.1%
> COc1ccc(C(CC(=O)N2CCC3(CC2)OCCO3)NS(=O)(=O)c2ccc(OC)cc2)cc1 (configuration not stated)
  >57, 7.9%
> CCOc1cc(-n2cnnn2)c(OCC)cc1NC(=O)c1cnccn1
  >57, 0.6%
> C/C(=C\C(=O)c1cccnc1)Nc1ccc(C)c(C)c1
  ., ?
> COCCn1c(SCC(=O)Nc2sc(C)c(C)c2C#N)nnc1C(C)C
  >57, -4.1%
> O=C(OCc1nnc(-c2ccccc2)o1)c1ccc(S(=O)(=O)NCc2ccco2)cc1
  >57, 6.1%
> O=c1c2cccc3c2c(nn1CN1CCOCC1)-c1ccccc1-3
  >57, -9.9%
> NNC(=O)CS(=O)(=O)Nc1ncccn1
  >57, -11.0%[8 µM]
> O=C(c1cccc(S(=O)(=O)N2CCCC2)c1)N1CCN(c2ccccc2F)CC1
  >57, -11.5%
> C/C(N)=C(/C#N)C(=O)CSc1nnnn1-c1ccc(C)cc1
  >57, -3.0%
> O=S(=O)(c1ccc2oc(-c3ccncc3)nc2c1)c1ccc2oc(-c3ccncc3)nc2c1
  >57, 4.5%
> COc1ccccc1NS(=O)(=O)c1cc(C(=O)NCCN2CCOCC2)ccc1Cl
  >57, -5.7%
> COc1cccc(Cn2c(=O)c(-c3cc(F)cc(F)c3)nc3cncnc32)c1
  >57, ?
> O=C(Cn1c(=O)c2c(ncn2C2CCCC2)n(Cc2ccccc2)c1=O)N1CCc2ccccc21
  >57, ?
> CN1C(=O)C(CC(=O)N2CCN(C(c3ccccc3)c3ccccc3)CC2)N(C)C1=O (configuration not stated)
  >57, 9.1%
> Cc1cc(S(=O)(=O)NC2CCCC2)ccc1F
  >57, -21.5%
> CCOC(=O)c1c(C)c(-c2ccccc2)n(CC(=O)N2CCN(C)CC2)c1C
  >57, -12.2%
> Cc1cc(S(=O)(=O)N(Cc2ccccn2)Cc2ccco2)ccc1-n1cnnn1
  >57, -4.9%
> COCC(=O)N(Cc1cc2cc(OC)ccc2[nH]c1=O)c1ccc(C)cc1
  >57, ?
> CCc1nc(SCc2cccnc2)c2c(=O)n(C)c(=O)n(C)c2n1
  >57, 8.1%
> CCOc1ccc2nc(SC(C)C(N)=O)[nH]c2c1 (configuration not stated)
  >57, -10.5%
> COc1cc(C2/C(=C(/O)c3ccc(OCC(C)C)cc3)C(=O)C(=O)N2CCN(C)C)ccc1O (configuration not stated)
  >57, .
> c1cncc(CNc2ncncc2-c2ccoc2)c1
  >57, 5.7%
> COC(=O)c1ccc(C2c3c(oc4ccc(F)cc4c3=O)C(=O)N2CCO)cc1 (configuration not stated)
  >57, 16.3%
> O=C(Nc1ccc(N2CCCCC2)c(Cl)c1)c1cccnc1
  >57, ?
> CCNc1ccc2c(Cl)cc(=O)oc2c1
  >57, ?
> CC(=O)N1CC2(CC(=O)OC(C)C)CN(C(C)=O)CC(CC(=O)OC(C)C)(C1)C2=O
  >57, -1.2%
> COC(=O)N1CCC2(CCCN(c3ncccn3)C2)CC1
  >57, -1.4%
> CCc1cc2c(NCCC(=O)O)ncnc2s1
  >57, 6.8%
> Cc1ccc2cccc(OCC(=O)NCc3ccco3)c2n1
  >57, -6.2%
> C[C@@H](CSC(=N)N)C(N)=O
  >57, 6.4%[8 µM]
> Cn1c(SCc2ccccc2)nnc1-c1ccc2c(c1)OCO2
  >57, 2.7%
> CCC(c1nnnn1CS(=O)(=O)c1ccc(C)cc1)N1CCN(c2nc3ccccc3s2)CC1 (configuration not stated)
  >57, -8.0%
> CCCNC(=O)c1cc(S(=O)(=O)N2CCc3ccccc32)ccc1F
  >57, -9.2%
> CCOc1ccc(N(CC(=O)Nc2ccc3c(c2)OCCO3)S(=O)(=O)c2c(C)noc2C)cc1
  >57, ?
> O=C1CCCC=C1[C@@H](O)COCc1ccccc1
  ., 12.4%[8 µM]
> Cc1cc(N2C(=O)CC(N3CCN(C(c4ccccc4)c4ccccc4)CC3)C2=O)no1 (configuration not stated)
  >57, 18.2%
> COCCN(Cc1cc2cc3c(cc2[nH]c1=O)OCO3)C(=O)c1cccs1
  >57, 4.6%
> NC(Cc1ccccc1)(C(=O)O)C(=O)O
  >57, -0.9%[8 µM]
> CCC1CCC2(CC1)NC(CO)(CO)CO2 (configuration not stated)
  >57, -3.1%
> O=C(c1cc(-c2ccc(Cl)c(Cl)c2)on1)N1CCCC1
  >57, -7.5%
> Cc1ccc(/C=N/n2c(C)nnc2C)s1
  >57, 5.2%
> O=C1NC(=O)C(CCc2ccncc2)(c2ccccc2)C(=O)N1
  >57, -0.5%
> O=C(/C=N/O)Nc1ccc(F)cc1
  >57, 3.2%
> CCOc1ccc(C(=O)Nc2cc(C)c3c(=O)oc4ccccc4c3n2)cc1
  >57, 18.8%
> c1cn(C23CC4CC(CC(C4)C2)C3)cn1
  >57, -22.6%
> CCOC(=O)/C(C#N)=C1/C=Cc2ccccc2N1CC
  ., 5.8%
> CC1CCCN(C(=O)C2CCN(S(=O)(=O)c3cccc4cccnc34)CC2)C1 (configuration not stated)
  >57, 6.7%
> CCOC(=O)N1CCC(NC(=O)C(CC(C)C)NC(=O)C2CCCCC2)CC1 (configuration not stated)
  >57, 14.3%
> COc1ccc(CCN2C(=O)CC(N3CCN(c4ccccn4)CC3)C2=O)cc1OC (configuration not stated)
  >57, -6.5%
> COC(=O)Cc1cc(=O)n(-c2nc3ccccc3s2)[nH]1
  >57, -2.3%
> COc1ccc(NC(=O)CC2C(=O)N(c3ccc(OC)cc3)C(=O)N2CCN2CCN(C)CC2)cc1 (configuration not stated)
  >57, -1.0%
> CC(C)CN1CCC2(CC1)CCN(C(=O)c1cccn1C)CC2
  >57, 10.2%
> COc1ccc(NC(=O)Cn2nnc(C(=O)NCc3ccccc3OC)c2N)cc1Cl
  >57, 20.3%
> CC1(C)c2ccccc2N2CCC(=O)NC21/C=C/c1ccco1 (configuration not stated)
  >57, ?

The list continues.
Below each compound – SmPrx2 inh, LT uptake inh
> CCNc1ncc2nc(-c3cc(F)cc(F)c3)c(=O)n(Cc3ccc(F)cc3)c2n1
  >11.4, -14.5%
> CC(C)CCNC(=O)c1cccc(Cl)c1
  >57, -8.1%
> CC(CCc1ccc(O)cc1)N(C)CCc1ccccc1 (configuration not stated)
  >57, -26.0%
> CCOC(=O)N1CCN(C(=O)CC(C(=O)N2CCc3ccccc32)n2ccnc2)CC1 (configuration not stated)
  >57, -2.1%
> CCCC(=O)Nc1cc(C)c(NC(=O)C23CC4CC(CC(C4)C2)C3)cn1
  >57, -0.8%
> N=C(N)SCCN
  >57&>57, ?
> CC(=O)Nc1ccc(S(=O)(=O)N2CCSC2c2ccc(C)cc2)cc1 (configuration not stated)
  >57, -2.4%
> COC(=O)c1[nH]c2cccc(C)c2c1NC(=O)CN1CCN(c2ccccc2OC)CC1
  >57, 3.7%
> CCCN1C(=O)/C(=C2\SC(N3CCCCC3)=NC2=O)c2ccccc21
  >57, 2.6%
> O=C(c1ccco1)N1CCN(C(c2ccccc2F)c2nnnn2CC2CCCO2)CC1 (configuration not stated)
  >57, 15.7%
> Cc1cc(N2CCOCC2)nc(SCC(=O)c2ccccc2)n1
  >57, 7.5%
> O=C(CSc1nnc(-c2ccccc2O)o1)Oc1ccc(OCc2ccccc2)cc1
  >57, -13.2%
> Cc1oc(-c2ccccc2)nc1CS(=O)CC(=O)N1CCc2ccccc2C1 (configuration not stated)
  >57, -16.9%
> CCOc1ncccc1C(=O)Nc1cccc(C(=O)Nc2cccc(S(=O)(=O)CCO)c2)c1
  >57, -15.1%
> Cc1ccc2nc(SCC(=O)NCc3ccco3)c(C#N)cc2c1
  >57, -13.1%
> COc1cc(C2NC(=O)NC(c3ccccc3)=C2C(C)=O)ccc1OCC(=O)O (configuration not stated)
  >57, -0.4%
> O=C(c1ccco1)N1CCN(C(=O)C2c3ccccc3Oc3ccccc32)CC1
  >57, 3.1%
> CCN1C(=O)NC(c2cccnc2)C(C(=O)OC)=C1C (configuration not stated)
  ., -1.6%
> CCn1cc(C(=O)OCC(=O)NCc2ccc3c(c2)OCO3)c(=O)c2ccc(C)nc21
  >57, 8.1%
> COc1ccc(C(=O)SC2=NCCS2)cc1OC
  ., -17.3%
> O=c1[nH]c(CN2CCN(Cc3ccc4c(c3)OCO4)CC2)nc2sc3c(c12)CCC3
  >57, -16.4%
> CC1CC(=O)C2=C(C1)Nc1ccccc1N(C(=O)COc1ccccc1)C2c1ccco1 (configuration not stated)
  >57, -1.7%
> COCc1nnc(NC(=O)CCCOc2ccccc2OC)s1
  >57, -4.7%
> COc1ccc(C2/C(=C(/O)c3ccc(F)cc3)C(=O)C(=O)N2CCCN(C)C)cc1 (configuration not stated)
  ., 1.1%
> Cn1c(SCC(=O)NCc2cccs2)nnc1-c1ccco1
  >57, 1.9%
> Cc1cc(Nc2ccc3c(c2)OCCO3)n2ncnc2n1
  >57, 11.5%
> O=C(Nc1nc(-c2ccccc2)cs1)C1CCCO1 (configuration not stated)
  >57, 13.1%
> COc1cc2oc(=O)c(Br)c(C)c2c(OC)c1OC
  ., -0.7%
> O=C(NC1CCCCC1)NC1(C(=O)NCCCN2CCOCC2)CCCCC1
  >57, 3.6%
> COc1ccccc1N1CC(O)=C(c2nc3ccccc3s2)C1=N
  >57, -26.7%
> Cc1cc(C)nc(SCc2ccc3nonc3c2)n1
  ., -9.7%
> N#Cc1c(N)n(CCCN2CCOCC2)c2nc3ccccc3nc12
  ., ?
> CC(C)=CCC/C(C)=C/CC/C(C)=C/CSc1ccccc1C(=O)O
  >57, 9.3%
> C=CCOC(=O)CCC(=O)Nc1cc(OC)nc(OC)n1
  >57, -3.9%
> N[C@@H](CO)C(=O)NNCc1ccc(O)c(O)c1O
  >57&>57, ?
> O=c1[nH]c2cc3c(cc2cc1CN(Cc1nnnn1CC1CCCO1)C1CCCC1)OCO3 (configuration not stated)
  >57, -18.9%
> CCCC(=O)C1=C(O)C(C(=O)OC)C(C)(C)CC1=N (configuration not stated)
  >57, 10.2%
> O=S(=O)(c1ccc2nc(-c3ccco3)c(-c3ccco3)nc2c1)N1CCOCC1
  ., -11.1%

This is a subset (hit frequency here may not be typical).
